VCAM-1 rise: boosters of cytokine-driven VCAM-1 levels – cell-based, plate reader, pooled HUVEC, TNFa stimulus (AID 455) | HUVEC TNFa-induced VCAM-1 immunofluorescence, plate reader; numbers were filed only for top-ranked candidate wells | augmentation, % at 5 µM | 10,000 tested, 0.2% active;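 active = a compound raising TNF-alpha-driven VCAM-1 surface staining, with its hit status upheld on visual or statistical review; inactive = the rest, including hits rejected on review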;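 note: 0% = TNFa with vehicle and 100% = strongest image-checked hit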
26S disassembly: blocks ATP-dependent breakdown of the yeast 26S proteasome | anti-FLAG beads, GFP-proteasome disassembly, flow cytometry | inhibition of disassembly, % (test concentration not listed) | 24,000 tested, 0.2% active | AID 751;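 active = above 40%; inconclusive = likely self-fluorescent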;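 note: plate controls were ATP control with full disassembly for no effect and ATP-gamma-S intact proteasomes for full effect; higher percent means more bead fluorescence retained so stronger block of disassembly; stock transfer was 100 nL into about 10 µL; wells with too few beads may also be inconclusive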
Numbers without * were called inactive; i = inactive; ? = inconclusive; . = not tested or not shown. Not all compounds are listed. The share of hits here may be higher or lower than overall.

SMILES	VCAM-1 rise	26S disassembly
Cc1nnc(NC(=O)C2C3C=CC(O3)C2C(=O)O)s1 (configuration not stated)	.	-0.9
CCOC(=O)c1ccc(NC(=O)COc2ccc(-n3cnnn3)cc2)cc1	i	-0.2
O=C(CCCN1C(=O)c2ccccc2C1=O)Nc1ccc(Br)cn1	.	-0.1
CS(=O)(=O)N1CCC(C(=O)NCc2ccc(F)cc2Cl)CC1	.	0.6
CSc1ccc(S(=O)(=O)N2CCN(Cc3ccc4c(c3)OCO4)CC2)cc1	.	0.2
COc1ccccc1C1/C(=C(/O)c2ccccc2)C(=O)C(=O)N1CC(C)O (configuration not stated)	.	4.4
O=C(NCc1ccccn1)c1ccc(CS(=O)(=O)Cc2ccc(Cl)cc2)o1	.	-1.5
CC1(C)Oc2ccc3ccc(=O)oc3c2/C(=C/NCCO)C1=O	.	-1.5
COc1ccc(Nc2nc(OC)nc(N3CCN(c4ccc(OC)cc4)CC3)n2)cc1	i	0.8
O=C(N[C@@H](Cc1ccccc1)C(=O)O)c1cccnc1	.	0.8
Cc1cc2cc(CN(CC3CCCO3)C(=O)c3cnccn3)c(=O)[nH]c2cc1C (configuration not stated)	i	2.9
O=C(CN1CCN(c2ccccn2)CC1)N1c2ccccc2CCc2ccccc21	i	1.6
CCOc1cc2c(cc1OCC)C(C(=O)O)C(c1ccc(OC)c(O)c1)N(C)C2=O (configuration not stated)	.	0.1
O=C(CSc1ncnc2c1nnn2-c1ccc(F)cc1)NCc1ccco1	.	1.1
COc1ccc(C2C(C(=O)N3CCC(C)CC3)c3ccccc3C(=O)N2C)cc1 (configuration not stated)	i	0.5
COC(=O)c1ccc2c(c1)NC1=C(C(=O)CC(C)(C)C1)C(c1ccncc1)N2 (configuration not stated)	.	0.2
Cc1c(NC(=O)CC(=O)Nc2c(C)n(C)n(-c3ccccc3)c2=O)c(=O)n(-c2ccccc2)n1C	.	0.7
Cc1cccc(N2CCN(c3cc(C)nc4nnnn34)CC2C)c1 (configuration not stated)	.	0.2
CCOC(=O)c1cnc(-n2nc(C)cc2C)nc1N1CC(C)OC(C)C1 (configuration not stated)	i	-7.0
CCOC(=O)N1CCN(C(=O)c2ccc3c(=O)n(CCc4ccccc4)c(=O)[nH]c3c2)CC1	i	-1.4
Clc1cc(Cl)c2nc(N3CCCCC3)sc2c1	.	2.9
Cc1cc(NC(=O)CCN2C(=O)C3C4C=CC(C4)C3C2=O)c2ccccc2n1 (configuration not stated)	.	-0.3
CCn1c(SCC(=O)N2CCCc3ccccc32)nnc1-c1cccs1	i	-0.1
Cc1ccc(NC(=O)CN(c2cc(C)cc(C)c2)S(=O)(=O)c2c(C)noc2C)nc1	.	0.3
CCCCCn1c(CCNC(=O)CCC)nc2ccccc21	i	-0.5
Cc1ccc2cc(C(c3nnnn3CC3CCCO3)N3CCCC4(CCCCC4)C3)c(=O)[nH]c2c1 (configuration not stated)	i	?
CCn1cc(C(=O)N2CC(C)CC(C)C2)c(=O)c2cc(S(=O)(=O)N(C)C)ccc21 (configuration not stated)	.	0.7
Cc1cc(Nc2ccc(F)c(Cl)c2)n2nc(C)nc2n1	.	-1.5
O=C(CSc1nnc(CNC(=O)c2ccccc2F)o1)Nc1ccc2c(c1)OCCO2	.	-0.5
COc1cccc(CNC(=O)C2CCN(S(=O)(=O)N3CCCCC3)CC2)c1	.	1.2
COCCCNC(=O)c1ccc(CS(=O)(=O)c2ccc(Br)cc2)o1	.	-2.5
O=C(NCc1ccco1)c1cc(-c2ccc(F)cc2)on1	.	0.0
CC(C)OCCCNC(=O)C1CC(=O)N(C2CCCCCCC2)C1 (configuration not stated)	.	2.2
COc1cc2[nH]c(=O)n(CCC(=O)NCc3cccnc3)c(=O)c2cc1OC	.	-0.8
O=C(NC(C(=O)c1ccccc1)N1CCOCC1)c1cccs1 (configuration not stated)	i	-1.5
CC(=O)c1ccc(OCC(O)CN2CCN(Cc3ccccc3)CC2)cc1 (configuration not stated)	.	0.3
Cc1cccc(NC(=O)c2cc3ccccc3c(=O)o2)n1	.	-2.4
CCc1ccccc1S(=O)(=O)Cc1ccc(C(=O)N2CCN(c3ccccc3OC)CC2)o1	.	-0.5
CCOC(=O)c1cccc(NC(=O)C(NS(=O)(=O)c2ccc3c(c2)CCN3C(C)=O)C(C)C)c1 (configuration not stated)	.	-1.2
O=C(CCN1C(=O)COc2ccccc21)NCc1cccnc1	.	-0.3
CN(C)S(=O)(=O)c1ccc(S(=O)(=O)N(Cc2ccco2)Cc2ccccc2Cl)cc1	i	-1.3
COC(=O)c1sc(=S)n(-c2cc(F)ccc2F)c1N	.	0.6
COc1ccc(-c2noc(Cc3ccc(Cl)cc3)n2)cc1OC	.	-0.4
O=C1c2ccccc2CCC1C(O)c1ccccn1 (configuration not stated)	.	-0.6
CCN(CC)CCNC(=O)CS(=O)Cc1nc(-c2ccc(Cl)cc2)oc1C (configuration not stated)	.	4.5
CCC1=[N+]([O-])C(C)(/C(C)=N\O)N(O)C1(C)C (configuration not stated)	.	-3.9
O=C(NCc1nc2ccccc2[nH]1)c1ccc(Cl)c(S(=O)(=O)N2CCCC2)c1	i	2.3
CCn1c(C)c(CCC(=O)O)c(=O)n2nc(-c3ccccc3OC)cc12	i	-0.7

Three compounds picked at random from those above, as already listed:
SMILES	VCAM-1 rise	26S disassembly
CC1(C)Oc2ccc3ccc(=O)oc3c2/C(=C/NCCO)C1=O	.	-1.5
O=C(NC(C(=O)c1ccccc1)N1CCOCC1)c1cccs1 (configuration not stated)	i	-1.5
CCCCCn1c(CCNC(=O)CCC)nc2ccccc21	i	-0.5

Other structures:
SMILES	VCAM-1 rise	26S disassembly
Cc1nc2cc(C(=O)O)ccc2n1-c1ccc(F)cc1F	i	-0.2
Cc1ccc(C2CC(c3ccccc3Cl)n3nc(N)nc3N2)cc1 (configuration not stated)	.	-1.0
Cc1oc(-c2ccc(Cl)cc2)nc1CN1CCC(C(=O)N2CCc3ccccc3C2)CC1	.	-1.3
CCn1cc(C(=O)N2CCN(Cc3ccc4c(c3)OCO4)CC2)c2cc(OC)c(OC)cc2c1=O	.	0.5
Cn1cccc1Cc1nnc(SCC(=O)N2CCCCCC2)n1-c1ccc(F)cc1	.	-1.7
Cc1cccc(N(C)c2cc(C)nc3nc(C)nn23)c1	.	0.1
CCn1c(=O)c(-[n+]2ccccc2)c(O)c2ccccc21	.	1.0
O=C(CSc1nnc2ccccn12)c1ccccc1	i	0.9
N#Cc1c(-c2ccccc2)nc(N2CCCCCC2)[nH]c1=O	i	2.7
COc1ccc(Cn2nnnc2C(c2cc3cc(C)cc(C)c3[nH]c2=O)N2CCOCC2)cc1 (configuration not stated)	i	3.4
Cc1cc(-n2c(C)cc(C(=O)CSc3nc4ccccc4c(=O)n3Cc3ccco3)c2C)no1	i	?
CCOc1ccccc1NC(=O)CCC(=O)Nc1ccc2nc(N3CCN(C)CC3)cc(C)c2c1	.	-0.3
COc1ccccc1N1CCN(C(=O)c2cc(-c3ccc(Br)cc3)on2)CC1	.	-0.2
CCCn1c(N)c(C(=O)CSc2nnc(Cc3ccccc3)o2)c(=O)n(C)c1=O	i	?
CCOc1ccc(N(CC(=O)OC)S(=O)(=O)c2c(C)noc2C)cc1	.	0.3
CCCCCCOC(=O)C(C#N)c1nc2ccccc2nc1N1CCCCC1 (configuration not stated)	i	-0.4
O=C(Cn1nc(C(F)(F)F)c2c1CCCC2)NCCN1CCOCC1	i	1.0
CCOC(=O)N1CCN(c2c(N3CC=C(c4ccccc4)CC3)c(=O)c2=O)CC1	.	3.0
O=C(NC1CCCc2ccccc21)C1CCN(C(=O)c2sccc2-n2cccc2)CC1 (configuration not stated)	.	0.2
O=C(CSc1ccc2nnc(-c3ccccc3)n2n1)N1CCCCC1	.	-1.8
Cc1cc(C)nc(NC(=O)NS(=O)(=O)Nc2ccc(Br)cn2)n1	.	2.2
Cc1nnc(SCC(=O)Nc2c(Cl)cccc2Cl)[nH]c1=O	i	0.8
c1ccc(-c2noc(C34CC5CC(CC(C5)C3)C4)n2)nc1	i	-1.7
CCN1CCN(c2ncc(C(=O)Nc3ccccc3C(=O)OC)c3ccccc23)CC1	.	-0.1
CCSc1ncc(C#N)c(=O)[nH]1	i	-0.1
CC(C)c1ccc(-c2nc(N3CCCC3)nc3n[nH]c(N)c23)cc1	.	1.0
CCOc1ccc(N(CC(=O)NCc2ccc(OC)cc2)S(=O)(=O)c2c(C)noc2C)cc1	.	-1.6
COc1cccc(C(=O)Nc2c3c(nn2-c2cccc(C)c2C)CS(=O)C3)c1OC (configuration not stated)	.	-0.6
COc1ccc(NC(=O)Cn2cccc2)c(OC)c1	.	1.5
CCOC(=O)Cn1nnc(-c2ccc(SC)cc2)n1	i	2.6
CCSCCC(NC1=CC(=O)CC(C)(C)C1)C(=O)O (configuration not stated)	i	-1.9
Cc1ccccc1OCC(O)CN (configuration not stated)	i	7.2
CCOC(=O)C1CCCN(C(=O)c2cn(C)c3ccc(S(=O)(=O)N4CCCC4)cc3c2=O)C1 (configuration not stated)	.	0.8
Cc1cc(-c2ccccc2)c2c3c(cn2n1)c(=O)n(C)c(=O)n3C	i	0.0
COc1cc(C2C(C#N)=C(C)NC3=C2C(=O)CC(C)(C)C3)ccc1O (configuration not stated)	i	0.3
COC(=O)c1cc2sc(Cl)cc2n1CC(=O)Nc1cccc(SC)c1	.	1.0
O=C(Nc1ccc(Cl)cc1)C1CC=CCC1C(=O)OCC(F)(F)C(F)F (configuration not stated)	i	-0.8
O=C(c1ccco1)N1CCN(C(=O)c2ccc(Cn3cc(Br)cn3)o2)CC1	i	3.4
Cc1noc(NS(=O)(=O)c2ccc(NC(=O)c3cnc4n(c3=O)CCS4)cc2)c1C	.	-1.0
CCCC(=O)N(c1ccc(F)cc1)C1C=CS(=O)(=O)C1 (configuration not stated)	.	-0.5
CCCCNC(=O)C1C2C=CC3(CN(Cc4ccc(C)cc4)C(=O)C13)O2 (configuration not stated)	.	0.9
CCOc1ccc(CC(=O)Nc2ccc(S(=O)(=O)Nc3cc(C)on3)cc2)cc1OCC	.	1.3
O=C1C2ON(c3ccc(Cl)cc3)C(c3ccco3)C2C(=O)N1c1ccccc1 (configuration not stated)	i	-1.4
COc1ccc(C2/C(=C(/O)c3cnn(-c4ccccc4)c3C)C(=O)C(=O)N2CCN(C)C)cc1OC (configuration not stated)	i	-1.7
CC(=O)N1CCc2c(sc(NC(=O)c3ccc(S(=O)(=O)N(C)C)cc3)c2C#N)C1	i	0.6
O=C(Nc1ccc(CN2CCCCC2)cc1)c1ccc2c(c1)OCO2	i	-1.2
CCCCNC(=O)CCn1nc(-c2ccccc2)ccc1=O	.	-0.6
CCCS(=O)(=O)N1CCC(C(=O)NC2CCCC(C)C2C)CC1 (configuration not stated)	.	-1.2

Laid out differently: results already given
Molecule | VCAM-1 rise | 26S disassembly
CCCCNC(=O)C1C2C=CC3(CN(Cc4ccc(C)cc4)C(=O)C13)O2 (configuration not stated) | . | 0.9
CCOc1ccc(CC(=O)Nc2ccc(S(=O)(=O)Nc3cc(C)on3)cc2)cc1OCC | . | 1.3

Continuation:
SMILES	VCAM-1 rise	26S disassembly
O=S1(=O)C=C(Sc2nnc(-c3ccccc3)o2)c2ccccc21	i	-0.1
C=CCOC(=O)C1=C(C)Nc2nc3ccccc3n2C1c1ccncc1 (configuration not stated)	.	0.4
CCn1c(=O)cc(O)c2c(=O)n(C)c(=O)n(C)c21	.	-0.1
O=c1cc(-c2ccccc2)[nH]c2nc3ccccc3n12	i	-1.8
COc1ccc(Cn2c(-c3ccco3)nc3oc4ccccc4c(=O)c3c2=O)cc1	i	2.0
O=C(CN1C(=O)CCSc2ccccc21)Nc1cccc(F)c1	.	-0.3
CN(Cc1ccccc1)C(=O)CCS(=O)(=O)c1ccc2c(c1)n(C)c(=O)c(=O)n2C	.	0.0
CCOC(=O)c1c(C)c(C(=O)NCc2ccccc2OC)c(C)n1C	.	1.3
COc1ccc(Cn2c(CCC(=O)NCc3ccco3)nc3cccnc32)cc1	.	-1.5
COc1ccc(C(=O)OCC(=O)c2ccc(C)c(S(=O)(=O)N3CCOCC3)c2)cc1OC	.	0.8
O=C1CCCC(O)=C1C(C#Cc1ccccc1)C1=C(O)CCCC1=O	.	-0.4
O=C(C1CCCN1S(=O)(=O)c1cccc2cccnc12)N1CCc2ccccc21 (configuration not stated)	.	-0.8
O=C(CN1CCN(c2nc(-c3ccccc3)cs2)CC1)Nc1ccc2c(c1)OCO2	i	2.6
COc1ccc(C(=O)Nn2c(C3CCC3)nc3ccccc3c2=O)c(OC)c1	i	-3.3
COc1nc(OC/C(N)=N/O)nc(N2CCOCC2)n1	.	0.0
COc1cc(C)nc(NS(=O)(=O)c2ccc(C)cc2)n1	i	-0.7

Compound profiles, as listed above. Order of values: VCAM-1 rise	26S disassembly
`COc1cc(C)nc(NS(=O)(=O)c2ccc(C)cc2)n1` as listed: i	-0.7
`COc1nc(OC/C(N)=N/O)nc(N2CCOCC2)n1` as listed: .	0.0
